Assay outcomes as filed in PubChem BioAssay.
FGF22 binding: binders of human FGF22 protein, primary screen, FGF22 synaptogenesis inhibitor project, biophysical, thermal shift, single point; recombinant FGF22 thermal shift, SYPRO orange fluorescence; percent of sucrose octasulfate shift, DMSO zero; calls only at 9.99 µM; 1.5% of 340,000 active; AID 651658, 2012;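 active means melting point raised past a set limit in the mean and every replicate; three in four hits are not shown here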
Target sequence (Q9HCT0 whole entry, looked up): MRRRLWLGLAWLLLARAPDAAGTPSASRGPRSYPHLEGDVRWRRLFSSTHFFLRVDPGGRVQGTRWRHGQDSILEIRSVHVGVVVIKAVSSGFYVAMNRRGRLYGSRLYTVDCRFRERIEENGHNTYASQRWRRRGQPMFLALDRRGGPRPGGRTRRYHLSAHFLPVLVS
rRNA inh HTS: reduced GFP signal of wild-type E. coli, primary screen, bacterial rRNA inhibitor project, GFP/RFP fluorescence, OD600, single point | GFP signal change (wild-type ribosome), % (no concentration beside the values) | AID 720706, 2013 | E. coli WT GFP vs humanized-ribosome RFP mutants, 24 h; stronger effect = lower value; DMSO median 0, no signal -100 | 1.6% of 350,000 active;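 active means significant combined selectivity score with lowered wild-type GFP, culture density cut under 30%, mutant RFP and density less affected; inactive means any of these conditions unmet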; further: one replicate is shown; some compounds called inactive have numbers as strong as hits
AF4-AF9 inh: inhibitors of AF4 peptide binding to AF9, primary screen, biochemical, AlphaScreen, biotin-AF4 peptide, FLAG-AF9, single point | inhibition, % at 10 µM | AID 651704, 2012 | Protein AF-9 (Homo sapiens), P42568 | 0.47% of 350,000 active;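 active means every replicate reaching a set inhibition limit, whatever the replicate mean, cut at about 25% in these data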;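 further: 0% = plate neutral control median and 100% = total signal loss; the record names both 10 and 1 µM as test concentration; the first replicate is given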
Target sequence (P42568 whole entry, looked up): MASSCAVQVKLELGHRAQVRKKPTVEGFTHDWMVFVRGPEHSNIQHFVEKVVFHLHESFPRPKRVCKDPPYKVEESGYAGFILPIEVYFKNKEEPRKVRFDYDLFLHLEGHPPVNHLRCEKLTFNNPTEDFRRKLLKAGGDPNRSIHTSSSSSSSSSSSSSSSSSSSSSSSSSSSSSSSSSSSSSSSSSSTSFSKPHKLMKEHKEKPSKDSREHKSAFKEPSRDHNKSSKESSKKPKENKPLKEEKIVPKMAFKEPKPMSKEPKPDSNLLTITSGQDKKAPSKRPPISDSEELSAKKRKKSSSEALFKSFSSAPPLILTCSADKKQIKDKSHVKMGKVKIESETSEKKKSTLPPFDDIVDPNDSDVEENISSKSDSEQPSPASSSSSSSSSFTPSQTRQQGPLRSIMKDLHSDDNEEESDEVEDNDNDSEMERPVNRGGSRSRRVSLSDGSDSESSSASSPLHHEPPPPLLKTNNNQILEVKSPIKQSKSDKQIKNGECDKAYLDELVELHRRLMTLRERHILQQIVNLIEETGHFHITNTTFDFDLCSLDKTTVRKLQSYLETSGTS
rRNA inh HTS OD600: further read-out of rRNA inh HTS, marked with its call; OD600 change, %; measured here: OD600 growth;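 optical density of the mix in the first replicate; 0 = DMSO median and -100 = no signal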
rRNA inh HTS RFP: also measured in rRNA inh HTS; calls as there; RFP signal change, %; measured here: RFP humanized mutant strains;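 first replicate; 0 = DMSO median and -100 = no signal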
Numbers without * were called inactive; i = inactive; + = active, no number; & = joins results of further samples. A portion of the library; the hit share may differ from the screen's.

SMILES	FGF22 binding	rRNA inh HTS	rRNA inh HTS OD600	rRNA inh HTS RFP	AF4-AF9 inh
CCC(=O)N1CCC1(C)C(=O)Nc1ccccc1 (centres undefined)	i	11	7	0.3	-2.1
CCCNC(=O)[C@@H]1[C@@H](CO)[C@@H]2Cn3c(ccc(-c4ccccc4F)c3=O)[C@H]1N2C(C)=O	i	1	6	1.4	-2.4
O=C(NCC1CC1)C1Cc2c(-c3cccc(F)c3)ccnc2O1 (centres undefined)	i	2	5	3.7	-1.8
COc1ccc(S(=O)(=O)N[C@@H]2C=C[C@H](CC(=O)N3CCN(c4ccccc4)CC3)O[C@@H]2CO)cc1	i	-7	-15	-1.2	0.3
C[C@@H]1CN([C@@H](C)CO)C(=O)c2cccc(NC(=O)NC3CCCCC3)c2O[C@H]1CN(C)Cc1ccncc1	i	0	5	-1.2	-2.1
CC(C)NC(=O)N1[C@@H]2c3ccc(-c4ccc(F)cc4)c(=O)n3C[C@@H]2[C@@H](CO)[C@@H]1C(=O)N1CCOCC1	i	-2	10	-1.2	2.2
O=C(NCC[C@@H]1CC[C@H](NC(=O)C2CCOCC2)[C@H](CO)O1)Nc1ccc(Cl)cc1	+	-8	-3	-0.8	-10
CCCNC(=O)N1[C@H](CO)[C@@H]2c3ccccc3N(C(=O)Nc3cccc(F)c3)C[C@@H]21	i	0	8	1.1	-1.9
CCCNC(=O)C[C@H]1CC[C@@H]2[C@@H](COc3ccc(NC(=O)c4cc(C)on4)cc3C(=O)N2C)O1	i	1	14	1.5	-14
COc1cccc(S(=O)(=O)N[C@@H]2C=C[C@H](CC(=O)NCc3ccc(F)cc3)O[C@H]2CO)c1	i	3	-4	0.2	-2.4
CCN(C[C@H]1N[C@H](CO)[C@H]1c1ccc(C2=CCCC2)cc1)C(=O)c1ccncc1	i	1	2	1.1	-19
COc1cccc(S(=O)(=O)N[C@H]2CC[C@@H](CCn3cc(-c4ccccc4OC)nn3)O[C@H]2CO)c1	i	-8	-16	1.1	2.3
Cc1cc(Br)cn2c(Cc3ccccc3)c(-c3ccc(Cl)cc3)nc12	i	1	9	-4.8	-0.3
C[C@@H]1CN([C@H](C)CO)C(=O)c2c(c3ccccc3n2C)-c2ccccc2CO[C@H]1CN(C)Cc1ccc(Cl)c(Cl)c1	i	6	0	-0.7	0.0
CN(Cc1ccccc1)N=Nc1ccccc1	i	2	-9	-8.5	1.1
C[C@H](CO)N1C[C@H](C)[C@@H](CN(C)Cc2ccc(C(F)(F)F)cc2)Oc2ccc(NS(=O)(=O)c3ccc(F)cc3)cc2CC1=O	i	-3	-5	1.9	-1.0
C[C@H](CO)N1C[C@H](C)[C@@H](CN(C)C(=O)Nc2ccc3c(c2)OCO3)Oc2c(NC(=O)c3nc4ccccc4s3)cccc2C1=O	i	-6	-3	0.9	-12
CCCc1nc2ccccc2n1C(CCSC)C(=O)NC(C)(C)C (centres undefined)	i	0	-7	0.5	-5.1
OC[C@@H]1[C@@H](c2ccc(-c3ccc(F)cc3)cc2)[C@H]2CN(Cc3cccnc3)CCCCN12	i	1	16	5.6	3.9
COc1ccc(S(=O)(=O)Nc2ccc3c(c2)C(=O)N([C@@H](C)CO)C[C@H](C)[C@@H](CN(C)C(=O)Nc2ccc(C(F)(F)F)cc2)OCCCC[C@H](C)O3)cc1	i	5	5	-4.1	-0.2
CNC[C@H]1Oc2ccc(NC(=O)CCCN(C)C)cc2C(=O)N([C@@H](C)CO)C[C@@H]1C	i	3	6	-2.9	0.7
CC=Cc1ccc2n(c1=O)C[C@@H]1[C@@H](CO)[C@H](C(=O)NCCc3ccncc3)N(CCC(F)(F)F)[C@H]21 (mixture of isomers)	i	-1	-2	-2.0	1.6
O=C(Nc1ccn(CCCN2CCC(N3CCOCC3)CC2)c(=O)n1)OCc1ccccc1	i	7	16	-0.1	-0.2
CCC(c1nc2ccccc2[nH]1)n1c(=O)c(-c2cccs2)nc2ccccc21 (centres undefined)	i	2	6	-1.2	6.6
C[C@@H]1CN([C@H](C)CO)C(=O)c2cc(NC(=O)Cc3ccccc3)ccc2O[C@@H]1CN(C)Cc1ccc(C(=O)O)cc1	i	4	10	0.0	-3.0
COc1ccc(S(=O)(=O)Nc2cccc3c2O[C@H](CN(C)C(=O)Nc2ccc4c(c2)OCO4)[C@@H](C)CN([C@@H](C)CO)C3=O)cc1	i	1	0	1.2	-0.9
COc1ccc2c3c([nH]c2c1)[C@@H](CO)N(C(=O)Cc1ccccc1)CC31CN(C(=O)Cc2ccccc2)C1	i	-2	9	-1.0	-1.5
C[C@H](NC(=O)C[C@@H]1C=C[C@H](NC(=O)Cc2ccccn2)[C@H](CO)O1)c1ccccc1	i	-6	-1	-2.2	-2.3
Cc1noc(C)c1NC(=O)Nc1ccc2c(c1)C(=O)N([C@H](C)CO)C[C@H](C)[C@H](CN(C)Cc1ccc(C(F)(F)F)cc1)OCCCC[C@@H](C)O2	i	1	0	-1.7	0.7
CC(=O)N(C)C[C@H]1Oc2cc(-c3ccccc3F)ccc2S(=O)(=O)N([C@@H](C)CO)C[C@@H]1C	i	-6	-3	4.1	-1.3
O=C(O)c1ccc2c(c1)C(=O)N([C@H](Cc1cccc3ccccc13)C(=O)O)C2=O	i	1	6	-1.7	-0.3
COCC(=O)Nc1ccc2c(c1)OC[C@@H](C)N(C(=O)Cc1ccccn1)C[C@@H](C)[C@H](OC)CN(C)C2=O	i	3	0	-1.0	0.7
COC(=O)C[C@@H]1C[C@H]2c3cc(NC(=O)Nc4ccc(C(F)(F)F)cc4)ccc3O[C@H]2[C@H](CO)O1	i	-62	-79	-19	12
CCC(=O)N1CCC1(C)C(=O)Nc1ccc2c(c1)OCO2 (centres undefined)	i	3	4	-0.9	4.3
O=C(C[C@@H]1CC[C@@H]2[C@H](COC[C@@H](O)CN2C(=O)Nc2ccc(F)cc2)O1)NCCCN1CCOCC1	i	7	12	-3.5	-30
COc1ccccc1NC(=O)N(C)C[C@H]1OCc2cn(nn2)CCCC(=O)N([C@H](C)CO)C[C@@H]1C	i	0&18	11&14	-0.2&3.8	1.2&-0.9
Cc1noc(C)c1S(=O)(=O)N(C)C[C@H]1Oc2c(NC(=O)c3nc4ccccc4s3)cccc2C(=O)N([C@@H](C)CO)C[C@H]1C	i	0	4	0.4	3.8
CO[C@H]1CC[C@H]2CCOc3ccc(C#N)cc3C(=O)N(C)C[C@H](c3ccccc3)CC(=O)N(C)C[C@H]1O2	i	3	2	-0.7	1.6
CC(=O)Nc1cncc(-c2ccccc2C(C)=O)n1	i	-52	-74	-9.8	-1.7
CCCNC(=O)C[C@@H]1CC[C@H]2[C@@H](COC[C@H](O)CN2C(=O)CC)O1	i	2	5	7.5	-1.7
COc1cccc(C(=O)Nc2ccc3c(c2)OC[C@@H](C)N(C(C)=O)C[C@@H](C)[C@@H](OC)CN(C)C3=O)c1	i	0	-4	-2.6	-1.9
C[C@H]1CN([C@@H](C)CO)C(=O)c2cc(C#CCc3ccccc3)cnc2O[C@H]1CN(C)C(=O)C1CCC1	i	4	6	-0.3	-3.2
COCCNC(=O)C[C@H]1CC[C@H]2[C@H](COc3ccc(NC(=O)Nc4ccccc4)cc3C(=O)N2C)O1	i	3	-1	-1.6	-0.3
CCOC(=O)CC1(CCc2ccccc2)Oc2ccccc2N1S(=O)(=O)c1ccc(C)cc1 (centres undefined)	i	3	1	1.4	-5.0
CC=Cc1ccc2n(c1=O)C[C@H]1[C@H](CO)[C@@H](C(=O)NCCCN3CCOCC3)N(C)[C@@H]21 (mixture of isomers)	i	2	1	0.0	-20
COc1ccc(NC(=O)N(C)C[C@H]2Oc3ccc(NC(=O)CCN4CCOCC4)cc3CC(=O)N([C@H](C)CO)C[C@@H]2C)cc1	i	2	-7	0.6	-1.9
CN1CCN(C(=O)C[C@@H]2CC[C@@H]3[C@H](COC[C@@H](O)CN3C(=O)Cc3ccccc3)O2)CC1	i	0	10	-2.8	0.6
O=C(C[C@@H]1CC[C@@H](NC(=O)Nc2cccc(F)c2)[C@@H](CO)O1)NCC1CCCCC1	i	-2&7	-9&0	-5.4&0.4	0.8&1.4
CCS(=O)(=O)NC(=O)C1(C)CCN1C(=O)C1(c2ccc(Cl)cc2)CC1 (centres undefined)	i	4	13	-0.4	-5.3
C[C@H]1CN([C@@H](C)CO)C(=O)Cc2cc(NC(=O)CCC(F)(F)F)ccc2O[C@@H]1CN(C)C(=O)Nc1ccc2c(c1)OCO2	i	2	13	-1.6	-0.7
CN(C)CC(=O)N1CC[C@@H]2[C@H](CO)Nc3ccc(-c4ccc(C(=O)N(C)C)cc4)cc3[C@@H]21	i	7	18	-2.2	4.8
O=C(Nc1ccc(F)cc1)N1C[C@@H]2[C@H](c3ccccc31)[C@H](CO)N2C(=O)Cc1ccccc1	i	-39	-61	7.3	0.7
COc1ccc(CCN2CC(C(=O)NCc3cnn(C)c3)CCC2=O)cc1 (centres undefined)	i	8	18	-2.4	-5.8
Cc1ccccc1S(=O)(=O)N(C)C[C@@H]1OCc2cn(nn2)CCCC(=O)N([C@@H](C)CO)C[C@@H]1C	i	0	0	0.0	-1.3
O=C(C[C@H]1CC[C@@H](NC(=O)C2CC2)[C@H](CO)O1)Nc1ccccc1	i	2	4	-0.3	-0.1
CCCC#Cc1ccc2c(c1)[C@@H]1[C@@H](CCN1S(=O)(=O)c1cccc(F)c1)[C@@H](CO)N2C	i	3	22	5.0	0.1
Cc1cc(C(=O)N2CCC2(C)C(=O)NS(=O)(=O)c2ccc(F)cc2F)nn1C (centres undefined)	i	13	21	-1.0	-4.5
O=C(NCC[C@@H]1CC[C@@H](NC(=O)C2CC2)[C@H](CO)O1)Nc1ccc(Cl)cc1	i	-33	-54	15	16
CC(C)NC(=O)N(C)C[C@@H]1Oc2cc(C3=CCCCC3)ccc2S(=O)(=O)N([C@H](C)CO)C[C@@H]1C	i	-7	-7	2.1	1.7
CCC(CC)CN1CCC(CN2C(=O)C(=O)NC[C@@H]2CC(C)C)CC1	+	-3	5	-6.4	-0.9

Copied from above, nine compounds:
SMILES	FGF22 binding	rRNA inh HTS	rRNA inh HTS OD600	rRNA inh HTS RFP	AF4-AF9 inh
CCS(=O)(=O)NC(=O)C1(C)CCN1C(=O)C1(c2ccc(Cl)cc2)CC1 (centres undefined)	i	4	13	-0.4	-5.3
C[C@H]1CN([C@@H](C)CO)C(=O)Cc2cc(NC(=O)CCC(F)(F)F)ccc2O[C@@H]1CN(C)C(=O)Nc1ccc2c(c1)OCO2	i	2	13	-1.6	-0.7
CN(C)CC(=O)N1CC[C@@H]2[C@H](CO)Nc3ccc(-c4ccc(C(=O)N(C)C)cc4)cc3[C@@H]21	i	7	18	-2.2	4.8
O=C(Nc1ccc(F)cc1)N1C[C@@H]2[C@H](c3ccccc31)[C@H](CO)N2C(=O)Cc1ccccc1	i	-39	-61	7.3	0.7
COc1ccc(CCN2CC(C(=O)NCc3cnn(C)c3)CCC2=O)cc1 (centres undefined)	i	8	18	-2.4	-5.8
Cc1ccccc1S(=O)(=O)N(C)C[C@@H]1OCc2cn(nn2)CCCC(=O)N([C@@H](C)CO)C[C@@H]1C	i	0	0	0.0	-1.3
O=C(C[C@H]1CC[C@@H](NC(=O)C2CC2)[C@H](CO)O1)Nc1ccccc1	i	2	4	-0.3	-0.1
CCCC#Cc1ccc2c(c1)[C@@H]1[C@@H](CCN1S(=O)(=O)c1cccc(F)c1)[C@@H](CO)N2C	i	3	22	5.0	0.1
Cc1cc(C(=O)N2CCC2(C)C(=O)NS(=O)(=O)c2ccc(F)cc2F)nn1C (centres undefined)	i	13	21	-1.0	-4.5

Next section:
SMILES	FGF22 binding	rRNA inh HTS	rRNA inh HTS OD600	rRNA inh HTS RFP	AF4-AF9 inh
CNC[C@@H]1Oc2ccc(NC(=O)CCN3CCOCC3)cc2CC(=O)N([C@@H](C)CO)C[C@@H]1C	i	2	8	-0.4	-3.6
C/C=C/c1ccc2c(c1)O[C@H](CN(C)C(=O)CC)[C@@H](C)CN([C@@H](C)CO)S2(=O)=O	i	-2	3	-0.8	0.2
CN1C(=O)c2cc(NC(=O)C3CCCCC3)ccc2OC[C@H]2O[C@@H](CC(=O)NCc3ccccc3F)CC[C@H]21	i	-7	-19	-1.8	-2.0
COc1ccc(S(=O)(=O)N(C)C[C@@H]2OCCCC[C@H](C)Oc3ccc(NC(=O)Nc4c(C)noc4C)cc3C(=O)N([C@@H](C)CO)C[C@H]2C)cc1	i	-1	-1	1.6	1.6
C[C@@H]1CCCCO[C@@H](CN(C)C(=O)Nc2ccc(F)cc2)[C@H](C)CN([C@@H](C)CO)C(=O)c2cc(NC(=O)c3ccccc3)ccc2O1	i	-2	-6	0.5	-4.0
O=C(C[C@@H]1C=C[C@@H](NC(=O)c2cccc(F)c2)[C@@H](CO)O1)NCc1ccc(Oc2ccccc2)cc1	i	0	1	-0.2	0.2
C[C@@H]1CN([C@H](C)CO)C(=O)c2cc(NC(=O)Nc3cccc4ccccc34)ccc2O[C@H]1CN(C)Cc1ccc(C(=O)Nc2ccccc2N)cc1	i	-8	-4	-1.8	-2.2
